Assay outcomes as filed in PubChem.
YopH inh: blocks Yersinia enterocolitica YopH tyrosine phosphatase; fluorescence Ex485/Em525; inhibition, %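 (about 10 µM by stock and volumes)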; actives 0.16% (n = 140,000); AID 898;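 active = inhibition of 50% or more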;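 also: controls were vehicle for no effect and minimum signal wells for full effect; inactives centre near -20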
RecA splice inh: inhibitors of M. tuberculosis RecA intein splicing; P9WHJ3; cell-free RecA intein splicing, fluorescence; inhibition, %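 (about 9 µM by stock and volumes)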; actives 0.75% (n = 290,000); in the data active = inhibition above about 30%; inconclusive = no clear call, values can overlap the other calls;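 also: 0% = vehicle wells and 100% = reference inhibitor control wells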
Target sequence (P9WHJ3 whole entry, looked up, canonical isoform): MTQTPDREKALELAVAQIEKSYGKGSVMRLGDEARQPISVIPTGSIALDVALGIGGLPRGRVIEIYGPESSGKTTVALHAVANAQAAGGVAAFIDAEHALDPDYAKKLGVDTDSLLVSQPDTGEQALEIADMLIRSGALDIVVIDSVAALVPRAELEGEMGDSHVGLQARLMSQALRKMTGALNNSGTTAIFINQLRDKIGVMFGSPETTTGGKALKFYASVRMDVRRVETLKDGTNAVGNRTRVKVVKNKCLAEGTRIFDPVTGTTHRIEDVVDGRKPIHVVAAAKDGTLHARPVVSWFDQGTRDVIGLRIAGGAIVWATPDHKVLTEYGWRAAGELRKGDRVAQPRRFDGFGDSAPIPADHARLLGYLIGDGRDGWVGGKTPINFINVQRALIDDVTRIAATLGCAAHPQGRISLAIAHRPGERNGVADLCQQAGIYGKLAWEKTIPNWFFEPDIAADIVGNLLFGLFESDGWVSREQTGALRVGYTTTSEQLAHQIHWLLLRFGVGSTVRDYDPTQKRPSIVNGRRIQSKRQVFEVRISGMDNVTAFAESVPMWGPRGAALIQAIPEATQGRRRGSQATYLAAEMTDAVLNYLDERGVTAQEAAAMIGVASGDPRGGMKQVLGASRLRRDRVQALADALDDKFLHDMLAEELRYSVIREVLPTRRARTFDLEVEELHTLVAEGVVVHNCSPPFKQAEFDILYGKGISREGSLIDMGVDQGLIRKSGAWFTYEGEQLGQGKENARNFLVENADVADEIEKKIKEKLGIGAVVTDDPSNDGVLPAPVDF
Mtb growth: M. tuberculosis H37Rv growth inhibitors, H37Rv strain (AID 1626). M. tuberculosis H37Rv growth inhibition; higher % means a stronger effect. inhibition, % at 10 µM, or IC50 in µM where a hit was titrated. actives 0.95% (n = 220,000);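 active = confirmed in a dose series; inconclusive = inhibition above 80% but not taken into the dose series; inactive = below 80% or under 30% at every dose of the series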;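 also: bacteria incubated seven days before Alamar blue readout; 0% = bacteria only wells and 100% = bacteria with antibiotic wells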
Arbovirus anti: blocks arbovirus infection | inhibition, % at 10 µM | AID 1251 | arbovirus infection cell-based antiviral screen | actives 0.37% (n = 200,000);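 active = inhibition from about 30%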;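 also: bluetongue infection of BSR cells; cell survival read as ATP light after 72 h; 0% = infected wells without compound and 100% = uninfected wells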
Mtb betalactam: beta-lactam sensitization of Mtb H37Rv; M. tuberculosis H37Rv growth with meropenem, percent inhibition; hits of this screen are not shown here; inhibition, % at 25 µM; actives 0.27% (n = 330,000);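 active = about 74% or more and at least 40 points above the plate without the antibiotic, then above 30% in a dose series; inconclusive = first-round hits that could not be retested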;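 also: growth measured after seven days incubation then overnight dye step; 0% = bacteria only wells and 100% = bacteria with antibiotic; twin plates without the antibiotic show which effects depend on it; some results filed as inactive read as strong as hits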
Arbovirus anti repeat: second read-out of Arbovirus anti, no call of its own (marks repeat the call); inhibition, %; measured here: 10K subset replicate screen; many hits read low in the repeat;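 first of two repeat runs on a subset; 0% = infected and 100% = uninfected wells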
* marks the source's active call; other numbers are inactive results; ? = inconclusive; nt = not tested or not shown. Not all compounds are listed (hit frequency here may not be typical).

SMILES | YopH inh | RecA splice inh | Mtb growth | Arbovirus anti | Mtb betalactam | others
O=C(CN1CCCC1=O)N1CCOCC1 | -202 | -2.2 | -8% | -4 | -18
COc1ccc(C(CNC(=O)CN2C(=O)NC3(CC(C)CC(C)(C)C3)C2=O)N2CCOCC2)cc1 (configuration not stated) | -1 | 0.1 | -9% | -3 | 4
CCS(=O)(=O)c1ccc(O)c(NC(=O)/C=C/c2ccccc2)c1 | nt | -2.6 | 1% | 7 | -1
Cc1ccc2c(c1)N(CC(=O)Nc1ccc3c(c1)OCCO3)C(=O)CO2 | -2 | -0.1 | -6% | 1 | 9
COc1ccc(NC(=O)CCS(=O)(=O)c2ccc3c(c2)oc(=O)n3C)cc1OC | nt | 2.6 | nt | nt | 1
CCN(CC)c1nc(NN)nc(Nc2ccc(C)c(Cl)c2)n1 | nt | 4.1 | nt | nt | 96
O=C(COC(=O)c1cc(S(=O)(=O)N2CCOCC2)ccc1Cl)NCc1ccco1 | nt | -1.3 | nt | nt | 1
COc1ccc2c(c1)-c1nc(NC(=O)c3cccs3)sc1CC2 | -40 | 9.1 | 6% | -29 | 77 | Arbovirus anti repeat=-22
CCCOP(=O)(OCCC)c1c([N+](=O)[O-])cc(C(F)(F)F)cc1[N+](=O)[O-] | 11 | 2.0 | ? | -12 | 100
CC(C)Oc1ccc(C(=O)NCc2cccs2)cc1 | 3 | -1.7 | 6% | -1 | -2
COc1ccc(Nc2ncc(C(=O)N3CCN(c4ccc(F)cc4)CC3)c3ccccc23)cc1 | 3 | -3.0 | 60% | -21 | ?
Cc1ccc(NC(=O)/C(Cl)=C\c2ccccc2)cc1 | nt | 2.8 | nt | nt | 100
Cc1ccc(-n2nc(C(=O)O)c(C)c(C#N)c2=O)cc1Cl | nt | -3.9 | nt | nt | 7
O=C(Nc1ccc([N+](=O)[O-])cn1)c1cc(-c2cccc(Cl)c2)nc2ccccc12 | -21 | 1.2 | -7% | 1 | 9
O=C(c1cc2n(n1)C(C(F)(F)F)CC(c1ccc(Cl)cc1)N2)N1CCCC1 (configuration not stated) | -18 | -3.2 | -2% | -3 | -2
O=C(NCCC1=CCCCC1)C1CCN(S(=O)(=O)c2cccc3nsnc23)CC1 | -30 | nt | -2% | -6 | -15
CCOc1ccc(NC(=O)N2CCc3ccccc3C2)cc1 | nt | 1.8 | nt | nt | 6
Cc1cc(OC(=O)c2ccccc2C(F)(F)F)c([N+](=O)[O-])c(=O)[nH]1 | nt | -2.1 | nt | nt | 2
CCOC(=O)N1CCN(C(=O)c2ccccc2NC(=O)c2ccc(Br)cc2)CC1 | -26 | 6.8 | -3% | -9 | 3
N#CCCn1cc(C(N)=O)c(-c2ccc3ccccc3c2)n1 | nt | -0.1 | nt | nt | -4
CN(C)c1ccc(NC(=O)Oc2ccccc2)cc1 | 0 | 0.3 | -2% | 6 | 4
O=C(COc1ccc2c(-c3ccccc3)cc(=O)oc2c1)Nc1ccc(CN2CCOCC2)cc1 | nt | -17 | nt | nt | 7
COc1cc(-c2nc3ccccn3c2/N=C/c2ccc(F)cc2)ccc1O | nt | -84 | 5% | -2 | 5
Cc1ccc(-c2cc(C(F)(F)F)nc(SCC(=O)c3cccc([N+](=O)[O-])c3)n2)cc1 | -28 | 0.0 | -5% | -7 | 5
CCOC(=O)c1c(NC(=S)Nc2ccc(Cl)cc2)sc(C)c1C | -11 | -3.5 | nt | 10 | nt
CC(=O)N1CCN(c2c(F)c(F)c(C(F)(F)F)c(F)c2F)CC1 | nt | -1.4 | 1% | 6 | nt
O=C(Nc1cccc([N+](=O)[O-])c1)c1cc(S(=O)(=O)Nc2ccccn2)ccc1Cl | nt | -1.8 | nt | nt | -8
CCCc1ccc2oc(C(=O)NCCc3cnn(C)c3)c(C)c2c1 | nt | 4.2 | nt | nt | 3
CCOc1cc(C(=O)NC(C)Cc2cccs2)cc(OCC)c1OCC (configuration not stated) | nt | 0.9 | 3% | 6 | 3
C#CCOn1c(-n2nc(C)cc2C)nc2ccccc2c1=O | nt | 1.1 | nt | nt | 37
O=C(NCCc1ccc(F)cc1)c1ccncc1 | nt | -1.2 | nt | nt | 0
C=C(C)C1CC=C(C)/C(=N/NC(=O)COc2ccccc2C)C1 (configuration not stated) | -23 | 2.8 | 6% | 2 | 4
Cc1cc(S(=O)(=O)NCC(C)C)ccc1OCC(=O)NCc1ccccn1 | 8 | 3.6 | -3% | 4 | -2
Cc1ccccc1Nc1ncnc2c1cnn2C | nt | 0.2 | nt | nt | 2
Cc1ccc(S(=O)(=O)NCCC(c2ccccc2)c2ccccc2)cc1C(=O)O | nt | 2.9 | 33% | -2 | -10
COc1ccccc1-c1cc(C(=O)N2CCOCC2)no1 | nt | -1.9 | nt | nt | -1
O=C(COc1ccccc1)N1CCN(C(=O)c2ccco2)CC1 | -27 | 0.8 | -8% | 6 | -10
COc1cc(C)cc(CN2CCC(Cc3ccccc3)CC2)c1O | nt | -3.4 | nt | nt | -10
C=CCNC(=S)NC(=O)c1csc([N+](=O)[O-])c1 | nt | -0.6 | 10% | nt | nt
CSc1ccccc1N=Cc1nc(-c2ccccc2)oc1O | -17 | -0.3 | 15% | 0 | 89

Of the compounds above, 5 have a CF3 group:
SMILES | YopH inh | RecA splice inh | Mtb growth | Arbovirus anti | Mtb betalactam | others
CCCOP(=O)(OCCC)c1c([N+](=O)[O-])cc(C(F)(F)F)cc1[N+](=O)[O-] | 11 | 2.0 | ? | -12 | 100
O=C(c1cc2n(n1)C(C(F)(F)F)CC(c1ccc(Cl)cc1)N2)N1CCCC1 (configuration not stated) | -18 | -3.2 | -2% | -3 | -2
Cc1cc(OC(=O)c2ccccc2C(F)(F)F)c([N+](=O)[O-])c(=O)[nH]1 | nt | -2.1 | nt | nt | 2
Cc1ccc(-c2cc(C(F)(F)F)nc(SCC(=O)c3cccc([N+](=O)[O-])c3)n2)cc1 | -28 | 0.0 | -5% | -7 | 5
CC(=O)N1CCN(c2c(F)c(F)c(C(F)(F)F)c(F)c2F)CC1 | nt | -1.4 | 1% | 6 | nt

Continuation:
SMILES | YopH inh | RecA splice inh | Mtb growth | Arbovirus anti | Mtb betalactam | others
O=C(NCc1ccccn1)c1cc(Br)ccc1Cl | nt | 0.1 | 2% | 2 | -3
COc1ccc(C2CC(c3ccccc3)=NN2C(=O)COC(=O)c2cccc(S(=O)(=O)N3CCOCC3)c2)cc1 (configuration not stated) | -10 | 2.8 | 0% | -17 | 0
COc1cc(-c2cc(=O)c3c(O)cc(O)cc3o2)ccc1O | nt | nt | -8% | 2 | -14
COc1ccc(NC(=O)CN2CCN(CC(=O)Nc3ccccc3Cl)CC2)cc1Cl | -51 | 0.9 | 6% | -6 | 1
CC(CCc1ccccc1)NC(=O)c1cnc(Cl)c(Cl)c1 (configuration not stated) | nt | 4.5 | nt | nt | -2
c1ccc(-c2cnc(CSc3ncnc4sccc34)o2)cc1 | -20 | 6.6 | -2% | 18 | -11
Cc1[nH]n(C(N)=S)c(=O)c1N=Nc1ccc([N+](=O)[O-])cc1Cl | nt | 1.8 | nt | nt | -1
COc1ccccc1/C=C/C(=O)OCCN1C(=O)c2ccccc2C1=O | nt | -6.9 | nt | nt | 5
Cc1noc(C)c1S(=O)(=O)NC1CCCc2ccccc21 (configuration not stated) | -41 | 5.1 | -7% | 8 | -1
Cc1ccc(NC(=O)CC(O)(C(F)(F)F)C(F)(F)F)cc1 | -1 | -0.6 | 2% | 16 | -3
CCOC(=O)/C(C#N)=C(/C)c1ccc(OC)cc1 | -8 | -1.2 | -5% | 3 | -6 | Arbovirus anti repeat=-2
O=C(CN1CCN(Cc2ccccc2F)CC1)Nc1ccccc1Cl | nt | 2.3 | nt | nt | 8
OCCNc1nc2ccccc2n1CCN1CCCCC1 | -25 | -2.2 | 10% | 3 | 3
O=[N+]([O-])c1ccc(C(=S)N2CCCC2)cc1 | nt | 0.1 | 6% | 1 | -8
Cc1ccc(CNc2cc(C(=O)O)ccc2Cl)s1 | nt | 0.8 | nt | nt | -7
Cc1cc2nc(SCC(=O)Nc3nonc3C)c3c(c2cc1C)CCCC3 | -14 | 0.7 | -9% | -8 | ?
COc1ccc(Cl)cc1NC(=O)CCNC(=O)OCc1ccccc1 | nt | -1.2 | -1% | 0 | 1
COC(/C=C/Nc1ccc(C)c(C)c1)=C(C#N)C#N | -37 | 0.4 | 3% | -2 | 3
COc1ccc(NC(=O)c2cccnn2)cc1 | nt | -1.8 | nt | nt | 3
O=C(NCCc1ccccc1)N1c2ccccc2Sc2ccccc21 | -39 | 12 | 24% | -15 | -7
O=[N+]([O-])c1ccc(C2=NN(c3ccccc3)C(c3ccco3)C2)cc1 (configuration not stated) | nt | -2.2 | 10% | nt | nt
COc1ccc2nc(-c3ccc(N)cc3)[nH]c2c1 | 0 | -1.6 | -11% | -5 | 0
CC1(C(=O)NCCOc2ccccc2Cl)CC1(Cl)Cl (configuration not stated) | nt | -0.1 | nt | nt | -7
Cc1ccc(-c2cc(C(F)F)nc(NCC3CCCO3)n2)cc1 (configuration not stated) | -26 | 1.0 | 0% | -8 | 4 | Arbovirus anti repeat=1
CCN1CCN(S(=O)(=O)c2ccc(Br)s2)CC1 | -22 | 1.8 | -4% | 2 | 3
CCOC(=O)C(NC(=O)NCc1ccc(F)cc1)(OCC)C(F)(F)F (configuration not stated) | -15 | 3.0 | -1% | -5 | 5
NC(=O)Cn1nnc(-c2ccc(C(F)(F)F)cc2)n1 | -29 | -2.5 | 11% | 4 | 94
CCOC(=O)C1C(=O)CC(C)(O)C(C(=O)OCC)C1c1ccc(OCC)cc1 (configuration not stated) | -36 | -0.3 | -8% | 4 | 4
NNC(=O)CNC(c1ccccc1)c1cc(Br)ccc1NC(=O)c1ccccc1Br (configuration not stated) | -8 | 1.0 | 1% | -15 | -9
C#CCOCCOCCOCCNc1nc(N2CCN(C(=O)[C@H]([C@@H](C)CC)n3cc([C@@H](N)Cc4ccc(O)cc4)nn3)CC2)nc(N2CCN(C(=O)[C@H](Cc3ccc(O)cc3)n3cc([C@@H](N)CC(C)C)nn3)CC2)n1 | nt | 1.0 | 50% | -7 | 84
O=C(Nc1ccccc1NC(=O)c1c(F)c(F)c(F)c(F)c1F)c1c(F)c(F)c(F)c(F)c1F | -4 | 0.7 | -6% | -17 | 9
Cc1ccc(N2C(=O)CC(Cc3cccc(C)c3)C2=O)cc1 (configuration not stated) | nt | nt | 0% | -9 | -2
CCN1C(=O)C(CC(=O)Nc2ccccc2Cl)N(NC(=O)c2cccc(F)c2)C1=S (configuration not stated) | nt | -1.8 | nt | nt | 11
Cc1ccc2c(c1)c(C)c(C)n2CC(O)Cn1nnc2ccccc21 (configuration not stated) | 9 | -7.3 | -2% | 14 | 15 | Arbovirus anti repeat=12
O=C(NCCS(=O)(=O)N1CCN(c2ccccc2F)CC1)c1c(F)cccc1F | nt | -2.9 | nt | nt | -15
Cc1cc(C)c(NC(=O)CCCCCNC2CCCCC2)c(C)c1 | nt | -1.5 | nt | nt | -4
Cc1c(C(=O)Nc2ccccc2F)sc2nc3n(c(=O)c12)CCC3 | nt | 0.1 | nt | nt | -5
CC(C)C(OC(=O)c1cccs1)C(=O)NCc1ccc(F)cc1 (configuration not stated) | nt | 1.1 | nt | nt | 3
C#C[C@]1(O)CCC2C3CCC4=C/C(=N/OCC(=O)NC(C)C(=O)NC(CCSC)C(=O)O)CC[C@]4(C)C3CC[C@@]21C (some centres not stated) | nt | -0.3 | nt | nt | ?
O=C(N/N=C/c1ccc[nH]1)c1cccc([N+](=O)[O-])c1 | -20 | 0.8 | -2% | -4 | 7
COC(=O)c1[nH]c(=O)c2ccccc2c1OCc1ccccc1 | 2 | 4.3 | -20% | 4 | 16
O=C(Cn1ncc2c([nH]c3ccccc32)c1=O)NCCc1ccccc1 | nt | 0.5 | nt | nt | 7
COc1ccccc1NC(=O)c1cc(N2C(=O)C3C4CCC(C4)C3C2=O)ccc1Cl (configuration not stated) | nt | -3.0 | nt | nt | -1
Cc1cccc(-n2c(SCN3C(=O)c4ccccc4C3=O)nc3ccccc3c2=O)c1 | -18 | nt | -7% | 6 | nt
Cc1ccccc1NC(=O)CSc1nnc2ccc(-c3cccnc3)nn12 | nt | 18 | nt | nt | 0
CC(=O)c1ccc(O)c(CSC2=NCCS2)c1 | nt | 3.6 | 4% | 14 | 9
CCOC(=O)C1CCCCN1Cc1ccccc1C(F)(F)F (configuration not stated) | -25 | 2.9 | -5% | 3 | 2
O=[N+]([O-])c1cccc(N(CC2CO2)S(=O)(=O)c2ccccc2)c1 (configuration not stated) | nt | 2.7 | nt | nt | -2
CC(C)NC(=O)C1=NN(c2ccccc2)C(=O)CC1 | nt | -1.3 | nt | nt | 3
